Assay outcomes: PubChem BioAssay, National Center for Advancing Translational Sciences (NCATS)
RE007 growth inh = qHTS Assay for Inhibitors of the HIV-1 protein Vpr | Potency, µM (titrated, usually from 92.2 µM), for the others: at the highest dose activity change, negative = less growth | 0.21% of 360,000 active | S. pombe RE007 Vpr strain, BacTiter-Glo ATP luminescence, 24 h; control for the full effect not named in the record; active = well fitted falling curve with a large enough effect; inconclusive = small, poorly fitted or top-dose-only effect; inactive = no such curve, though single readings can be large or run the other way;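 also: nearly all actives have a fitted effect of over 50% in size; the assay follows cell death caused by Vpr and the record does not say whether a fall means rescue or toxicity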
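Fission yeast RE007 carrying one integrated HIV-1 vpr copy, seeded at OD 0.01 in PMG+AL medium with 23 nL pinned compound. Grown 24 h at 30 degrees; viability read by BacTiter-Glo luminescence after 5 min.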
StopGo reporter = High Throughput Screening for Foot and Mouth Disease Virus Antivirals; human cells with a luciferase reporter of 2A StopGo recoding; control for the full effect not named in the record; Potency, µM (highest dose often 57.9 µM), for the others: top-dose signal change, negative = less light; 1.2% of 410,000 active; AID 1159524, 2015; active = well fitted falling curve with a large enough effect; inconclusive = small, poorly fitted or top-dose-only effect; inactive = no such curve, though single readings can be large or run the other way; tested in HEK293T cells; also: nearly all actives have a fitted effect of over 45% in size; luciferase light after 4 h
Active calls of the source: *; ? = inconclusive; [ ] = dose if it differs, or a comment. % is scaled to controls: 0 for no effect and ±100 for the full control effect; potency is read from the fitted curve at half-maximal effect. An excerpt; count on the stated rates, not on these rows.

The opening 2 entries (preview)
SMILES	RE007 growth inh	StopGo reporter
Cc1ccc2nc(C(C)(C)C)c(Cc3cccc(F)c3)n2c1	?	-1%
O=C(NC1CCCCC1)C1c2ccccc2OCC(=O)N1CCc1ccccc1 (stereo not drawn)	8%	-9%

The whole of this part, from the first entry:
SMILES	RE007 growth inh	StopGo reporter
Cc1ccc2nc(C(C)(C)C)c(Cc3cccc(F)c3)n2c1	?	-1%
O=C(NC1CCCCC1)C1c2ccccc2OCC(=O)N1CCc1ccccc1 (stereo not drawn)	8%	-9%
CC1C=CC(C)C(C(=O)c2ccccc2)C1C(=O)c1ccccc1 (stereo not drawn)	2%	-27%
CC(=O)NC12CC3CC(C1)CC(C(=O)N1CCN(S(=O)(=O)c4cccc([N+](=O)[O-])c4)CC1)(C3)C2	-5%	-21%
COc1ccccc1-c1cccc2nccn12	-16%[18.4 µM]	-17%
COc1cc(Cn2c3ccc(NC(=O)CCc4ccc(O)cc4)cc3c(=O)n2C)ccc1F	-1%[18.4 µM]	13%
CC(=O)Nc1ccc(S(=O)(=O)Nc2nnc(C)s2)cc1	-7%	-16%
S=C1SCN(Cc2cccs2)CN1Cc1cccs1	-17%	2%
Cc1cccc(C)c1NC(=O)C(c1ccccc1)N1CCN(C/C=C/c2ccccc2)CC1 (stereo not drawn)	-9%	-17%
COc1cccc(N2C(=O)CC(N3CCN(S(=O)(=O)c4ccccc4[N+](=O)[O-])CC3)C2=O)c1 (stereo not drawn)	7%	-4%
CCOC(=O)C[C@H]1c2ccc(C(F)(F)F)cc2S(=O)(=O)N1c1cccc(OC)c1	5%	100%[activator]
CC[C@H](C)[C@@H]1OC(=O)[C@@H](C)[C@@H](CC)NC(=O)[C@H](C)N(C)C(=O)C(C)(C)C(=O)C(C)NC(=O)[C@H](Cc2ccccc2)N(C)C(=O)[C@H](C(C)C)N(C)C(=O)CNC(=O)[C@H](CC(C)C)N(C)C(=O)CNC1=O (stereo partly drawn)	6%	0%
CC(C)C[C@@H]1Cc2[nH][nH]c(=O)c2[C@H](c2ccc(Cl)cc2)O1	-8%	-24%
COc1ccc(-c2oc3ccc(-c4cc(OC)c(OC)c(OC)c4)cc3c2-c2ccc(OC)cc2)cc1	3%	-28%
COC(=O)[C@]12CCCCC=C1N(Cc1ccco1)C(=O)[C@H](CC(=O)NCC13CC4CC(CC(C4)C1)C3)C2	1%	-12%
O=c1[nH]c2ccccc2n1C1CCN(C(c2cc3ccccc3o2)c2nnnn2Cc2ccccc2)CC1 (stereo not drawn)	3%	?
O=S(=O)(Nc1ccc(O)c2ccccc12)c1ccc(F)cc1	5%	?
CC(C)(C)n1nnnc1C(c1ccccc1)N1CCN(c2ccc(F)cc2)CC1 (stereo not drawn)	-3%	-20%
COc1ccc2[nH]c3c(c(=O)c2c1)CCCC3	-12%	3%
C[C@@H]1CN([C@@H](C)CO)C(=O)c2cc(Br)cnc2O[C@H]1CN(C)S(=O)(=O)c1ccccc1	15%	-20%
CCOC(=O)C1CCN(C(=O)c2ccc(NS(=O)(=O)c3ccc4[nH]c(=O)[nH]c4c3)cc2)CC1	-9%	-9%
COc1ccc(C=C2CCC3C(CCCC34OCCO4)C2=O)cc1 (stereo not drawn)	-18%	41%[activator]
Cc1cc(C)c(S(=O)(=O)N2Cc3ccccc3-n3nncc3C2)c(C)c1	6%	22µM*
O=C(NCc1ccccc1)C(c1ccc(F)cc1)N1CCN(CCN2CCOCC2)CC1 (stereo not drawn)	-14%	-21%
CC(=O)c1ccc(OC2(C)CCN(Cc3ccc4ccccc4c3)C2)cc1 (stereo not drawn)	?	6%
CCNC(=O)C1CCCN(C(=O)c2ccc(OC)c(OC)c2)CC1 (stereo not drawn)	4%[18.4 µM]	-11%
COc1cc2c(cc1OC)C(c1c(-c3c(Cl)cccc3Cl)noc1C)=NCC2	-4%	?
CCN1C(=O)[C@H]2[C@@H](c3ccc(OC)cc3)N[C@]3(CCCN(Cc4cccn4C)C3=O)[C@H]2C1=O	1%	0%
Cc1ccc(C(=O)O)cc1NC(=O)CCc1c(C)noc1C	0%	-25%
Cc1nc(NC(=O)C(C)(C)C)sc1-c1csc(N)n1	-14%	-19%
C[C@@H]1CCCN1[C@@H]1CS(=O)(=O)N[C@H]1COCc1ccccc1	3%	-8%
O=C1NC[C@H](CCCCN2CCN(CCc3ccccc3)C(=O)C2=O)N(CCc2ccccc2)C1=O	17%	-21%
CCOC(=O)C(=NO)C1=CSC2=NNC(C)(C)N12	11%	-7%
Cc1cn([C@H]2C[C@H](O)[C@@H](CCC(=O)NCCc3cnc[nH]3)O2)c(=O)[nH]c1=O	4%	-12%
CCCS(=O)(=O)NC(=O)C1(C)CCCN(C(=O)c2ccc3snnc3c2)C1 (stereo not drawn)	12%	-9%
COc1ccc(Cl)cc1NC(=O)CSc1nc2[nH]ncc2c(=O)[nH]1	3%	-28%
COc1ccc(CNC(=O)Nc2nc(C(N)Cc3ccc(Cl)cc3)cs2)cc1 (stereo not drawn)	0%[18.4 µM]	-21%
CCc1nc2ccc(C(=O)Nc3cccc(OC)c3)cn2c1N(CC)CCOC	-29%[18.4 µM]	-20%
COCCCN(C(=O)C1=COCCO1)c1c(N)n(Cc2ccccc2)c(=O)[nH]c1=O	-5%	-13%
COc1cccc(-c2oc3c(c2C(=O)OCCN(C)C)C(O)CCC3)c1 (stereo not drawn)	4%	-13%

Given in markdown: part of the list above.
| SMILES | RE007 growth inh | StopGo reporter |
| --- | --- | --- |
| Cc1ccc(C(=O)O)cc1NC(=O)CCc1c(C)noc1C | 0% | -25% |
| Cc1nc(NC(=O)C(C)(C)C)sc1-c1csc(N)n1 | -14% | -19% |
| C[C@@H]1CCCN1[C@@H]1CS(=O)(=O)N[C@H]1COCc1ccccc1 | 3% | -8% |
| O=C1NC[C@H](CCCCN2CCN(CCc3ccccc3)C(=O)C2=O)N(CCc2ccccc2)C1=O | 17% | -21% |
| CCOC(=O)C(=NO)C1=CSC2=NNC(C)(C)N12 | 11% | -7% |
| Cc1cn([C@H]2C[C@H](O)[C@@H](CCC(=O)NCCc3cnc[nH]3)O2)c(=O)[nH]c1=O | 4% | -12% |
| CCCS(=O)(=O)NC(=O)C1(C)CCCN(C(=O)c2ccc3snnc3c2)C1 (stereo not drawn) | 12% | -9% |
| COc1ccc(Cl)cc1NC(=O)CSc1nc2[nH]ncc2c(=O)[nH]1 | 3% | -28% |
| COc1ccc(CNC(=O)Nc2nc(C(N)Cc3ccc(Cl)cc3)cs2)cc1 (stereo not drawn) | 0%[18.4 µM] | -21% |
| CCc1nc2ccc(C(=O)Nc3cccc(OC)c3)cn2c1N(CC)CCOC | -29%[18.4 µM] | -20% |
| COCCCN(C(=O)C1=COCCO1)c1c(N)n(Cc2ccccc2)c(=O)[nH]c1=O | -5% | -13% |
| COc1cccc(-c2oc3c(c2C(=O)OCCN(C)C)C(O)CCC3)c1 (stereo not drawn) | 4% | -13% |

More structures follow:
SMILES	RE007 growth inh	StopGo reporter
CC(=O)NC(c1ccccc1)c1nc(/C=C/c2ccccc2)cs1 (stereo not drawn)	-2%[18.4 µM]	8%
COc1ccc(CCNC(=O)c2ccc(Br)o2)cc1Br	-15%	0%
C[C@H]1CN([C@@H](C)CO)C(=O)CCCn2nncc2CO[C@@H]1CN(C)C(=O)Nc1ccc(N2CCCCC2)cc1	-1%	-8%
O=C(O)c1cc2ccccc2c2c1C(=O)c1ccccc1-2	-13%	0%
O=C(/C=C/[C@H]1O[C@@H](n2ccc(=O)[nH]c2=O)[C@H](O)[C@@H]1O)NCCc1cccs1	6%	-17%
C[C@@H]1CN([C@H](C)CO)C(=O)CCCn2nncc2CO[C@H]1CN(C)Cc1ccc(O)cc1	-29%	-1%
C[C@H]1CN([C@@H](C)CO)C(=O)c2cc(Br)cnc2O[C@H]1CN(C)Cc1ccc(Oc2ccccc2)cc1	-9%	-19%
COc1ccccc1-c1cccc(-c2nc(C(=O)Nc3nccs3)cc3c2[C@H](CCO)N(C(C)=O)C3)c1	-1%	-2%
CCOc1ccccc1C(=O)NCC(=O)NNC(=O)c1csc(N2CCOCC2)n1	6%	0%
CC(C)C[C@H]1CN(CCCC[C@H]2CNC(=O)C(=O)N2Cc2ccccc2)C(=O)C(=O)N1CCc1ccccc1	19%	-14%
C=CCn1c(-c2ccccn2)n[nH]c1=S	11%	-9%
O=C(Nc1ccc2c(c1)OCO2)c1csc(COCCO)n1	1%	25%
CC(C)C[C@H]1CNC(=O)C(=O)N1CC1CCN(CCc2ccccc2)CC1	-10%	-3%
Cc1cccc(C)c1-n1nnnc1C(c1cc2ccccc2o1)N1CCN(C/C=C/c2ccccc2)CC1 (stereo not drawn)	2%	-5%
CC(C)c1ccccc1NC(=O)Nc1nc(C(N)Cc2ccc(C(F)(F)F)cc2)cs1 (stereo not drawn)	7%	-23%
CS(=O)(=O)c1ccc(Nc2nc(C(N)c3ccccc3Cl)cs2)cc1 (stereo not drawn)	8%[18.4 µM]	-18%
COC(=O)/C=C/c1ccc2c(c1)S(=O)(=O)N(Cc1ccc(OC)cc1)[C@H]2CC(=O)OC	-6%	2%
O=C(NC1CCCCC1)C(C1CC1)n1c(=O)c(-c2ccccc2)nc2ccccc21 (stereo not drawn)	1%	3%
COCCNC(=O)C1Cc2c(-c3cccc(NC(C)=O)c3)ccnc2O1 (stereo not drawn)	0%	-6%
C=CCC(=O)N1CCC(n2nccc2NC(=O)c2ccc3c(c2)OCO3)CC1	-3%	0%
CC(=O)c1ccc(S(=O)(=O)Nc2ccc(C(=O)NCC(c3ccco3)N3CCCC3)cc2)cc1 (stereo not drawn)	-6%	-16%
COc1ccc(C#Cc2c(-c3ccc(OC)cc3)oc3ccc(-c4ccc5c(c4)OCO5)cc23)cc1	5%	-5%
CN(C(=O)c1ccc(NC(=O)Cc2ccc(NC(=O)C3CCCN(C(=O)C4CCCC4)C3)cc2)cc1)C1CCCC1 (stereo not drawn)	-5%	-14%
CCOC(=O)N1CCN(C2=C(NS(=O)(=O)c3ccc(Br)cc3)C(=O)c3ccccc3C2=O)CC1	-9%	26%
CCCCCCn1cc(CN2CC(N3CCCC3)CS2(=O)=O)nn1 (stereo not drawn)	8%	-9%
Cc1ccccc1NC(=O)Nc1nc(CN(C)C)cs1	0%	1%
CCOC(=O)[C@]12CCCC=C1N(CCc1ccc(OC)c(OC)c1)C(=O)[C@H](CC(=O)NCc1ccc(C)o1)C2	3%	-13%
O=[N+]([O-])c1cccc(COc2ccc(CN3CCOCC3)cc2)c1	-4%	8%
CCCc1c(C(=O)N/N=C(\C)c2cc(C)sc2C)nnn1-c1nonc1N	-8%	0%
COc1ccc(S(=O)(=O)N2CCCCC2c2cc(C(=O)Nc3ccc4c(c3)OCO4)no2)cc1 (stereo not drawn)	-9%	-11%
CN(C)S(=O)(=O)N1CCC(Oc2ccc(C(=O)N3CCCCCC3)cc2)CC1	12%	4%
Cc1ccc(C(O)c2ncc(-c3ccccc3C)[nH]2)cc1 (stereo not drawn)	?	60%[activator]
COCCNC(=O)C1(C)CCCN(C(=O)c2ccc(OC)cc2OC)C1 (stereo not drawn)	3%	-21%
CC(C)CC(CO)NS(=O)(=O)c1cccc(Cl)c1F (stereo not drawn)	2%	-8%
COc1ccc(N2CCN(C(=O)c3ccc4c(c3)NC(=O)C(CSCc3ccccc3F)N4)CC2)cc1 (stereo not drawn)	-1%	-8%
COCCc1ccc(OC2(C)CCN(Cc3cccc(OCOC)c3)C2)cc1 (stereo not drawn)	-18%	-18%
O=C(O)C1=C[C@H](C2CC2)C[C@H](OCc2ccc(CO)cc2)O1	1%	-12%
CN1CCCC1(C)C(=O)Nc1ccc(-n2cccc2)cc1 (stereo not drawn)	-8%	18%
O=C(Cc1cccc(NC(=O)C2CCCN(C(=O)C3CCCC3)C2)c1)Nc1ccc(C(=O)N2CCCCC2)cc1 (stereo not drawn)	0%	-1%
CC(OC(=O)Cc1n[nH]c(=O)c2ccccc12)C(=O)N(C)c1ccccc1 (stereo not drawn)	-9%	?
NC(c1csc(Nc2cc(Oc3ccccc3)ncn2)n1)c1ccccc1Cl (stereo not drawn)	6%[18.4 µM]	?
Nc1ccccc1C#Cc1ccc2[nH]ccc2c1	-10%	67%[activator]
COc1ccc(CC(N)c2csc(Nc3ccccn3)n2)cc1 (stereo not drawn)	-14%	-11%
Nc1c(-c2ccc(C(F)(F)F)cc2)nc2ncccn12	-12%	23%
O=C(C[C@H]1CC[C@@H](NC(=O)Cc2cccnc2)[C@@H](CO)O1)NCc1ccc2c(c1)OCO2	4%	-19%
O=C(NCc1nnc(SCC(=O)N2CCOCC2)o1)c1ccccc1	-2%	0%
CCCNC(=S)NC1CC2CCCC(C1)N2Cc1ccccc1OC (stereo not drawn)	-10%	-7%
CCCOc1ccc(C(=O)NC(=S)N2CCN(c3ncc4c(=O)c(C(=O)O)cn(CC)c4n3)CC2)cc1	-14%	-24%
Cc1ccc(S(=O)(=O)N2CCCC2CNC(=O)C(=O)NCc2ccc3c(c2)OCO3)cc1 (stereo not drawn)	10%	-15%
CNC[C@@H]1OCc2cnnn2CCCC(=O)N([C@H](C)CO)C[C@H]1C	-7%	-16%
